# Rango dissoc inh: qHTS Assay for Inhibitors of RanGTP induced Rango (Ran-regulated importin-beta cargo) - Importin beta complex dissociation; Snurportin-1 (Homo sapiens) + GTP-binding nuclear protein Ran (Homo sapiens) + Importin …; Biochemical FRET Rango-importin beta, RanGTP-induced dissociation; Potency, µM (highest dose often 46.1 µM), for inactives: top-dose activity change, negative = inhibition; 340,000 tested, 0.071% active; active means falling FRET ratio curve, often poorly fitted, with flat reads before Ran was added; inconclusive means other falling curves, or compound fluorescence or quenching; inactive means flat or rising ratio curve;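 further: potency means the concentration at half of the fitted maximal effect; % of control where 0% means no effect; nearly all actives have a fitted effect of over 45% in size; -100% = wells without RanGTP and RCC1; the record marks most hits as doubtful in a second field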
#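 Quantitative HTS using a FRET biosensor: 0.1 uM Rango, 0.25 uM importin beta, 0.6 uM Ran, 2 mM GTP, 0.2 uM RCC1 final, PBS with DTT, Tween-20 and BSA. Post-read taken 45 min after Ran addition.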
# GLA inh pH 4.5: qHTS Assay for Inhibitors of Human alpha-Galactosidase at pH 4.5; purified enzyme, 4-MU-alpha-Gal fluorescence, pH 4.5; activity change, negative = inhibition, % at 105 µM; 230,000 tested, under 10 active; AID 1467, 2008; inconclusive = small, poorly fitted or top-dose-only inhibition, or a rising curve; inactive = flat fitted curve, though single readings scatter; no compound was filed as active;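 further: 0% = full activity with enzyme and -100% = basal without enzyme; dose as in the result columns while the protocol names 77 µM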
# Target sequence (P06280 whole entry, looked up): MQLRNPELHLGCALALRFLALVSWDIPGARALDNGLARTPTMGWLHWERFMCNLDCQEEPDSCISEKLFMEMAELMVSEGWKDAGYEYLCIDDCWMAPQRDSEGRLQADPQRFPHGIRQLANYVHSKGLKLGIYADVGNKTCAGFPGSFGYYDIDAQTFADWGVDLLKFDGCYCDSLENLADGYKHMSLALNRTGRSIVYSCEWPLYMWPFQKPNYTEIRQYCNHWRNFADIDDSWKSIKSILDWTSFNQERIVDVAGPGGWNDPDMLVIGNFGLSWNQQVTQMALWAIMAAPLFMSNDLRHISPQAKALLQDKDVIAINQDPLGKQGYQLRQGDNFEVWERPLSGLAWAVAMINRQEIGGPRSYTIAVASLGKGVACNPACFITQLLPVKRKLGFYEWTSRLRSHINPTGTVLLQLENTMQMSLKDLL
# miR-21 FLuc: qHTS Assay for Modulators of miRNAs and/orActivators of miR-21 | HeLa miR-21 FLuc reporter, luciferase, 48 h | Potency, µM (series often up to 38.3 µM), for inactives: at the top dose reporter change, positive = more light | 340,000 tested, under 10 active | AID 2288, 2010; active = well fitted rising curve with a large enough effect; inconclusive = small, poorly fitted or top-dose-only effect; inactive = no such curve, though single readings can be large or run the other way;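 further: % of control where 0% means no effect; miR-21 action dims this reporter so a rising signal means less miR-21 action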
#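 HeLa cells stably expressing CMV-driven firefly luciferase with a downstream miR-21 binding sequence, endogenously expressing miR-21, were treated with titrations (up to about 40uM final) for 48 hours at 37 degree Celsius. Luciferase luminescence was read after lysis.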
# Rango-impB inh: qHTS Assay for Inhibitors of Rango (Ran-regulated importin-beta cargo) - Importin beta complex formation. Importin subunit beta-1 (Homo sapiens), Q14974. Rango CFP/YFP FRET sensor + importin beta, 45 min. Potency, µM (top dose mostly 92.2 µM), inactives show at the top dose inhibition of complex formation. 340,000 tested, 0.031% active; active = rising FRET ratio curve, often small or poorly fitted; inconclusive = mostly compound fluorescence or quenching in the first reads; inactive = flat curves in all reads;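 further: potency means the concentration at half of the fitted maximal effect; 0% = DMSO wells and 100% = buffer wells lacking importin beta; nearly all actives have a fitted effect of over 15% in size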
#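 FRET biosensor Rango (snurportin 1 IBB between N-terminal EYFP and C-terminal Cerulean), 50 nM in PBS/1 mM DTT/0.02% Tween-20/0.1% BSA, preincubated 5 min RT with compound; 0.125 microM importin beta added, 45 min RT, CFP/YFP FRET ratio read.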
# Numbers without * were called inactive; u = inconclusive; x = not tested or not shown; & = joins results of further samples. Not all compounds are listed; count on the stated rates, not on these rows.
SMILES,Rango dissoc inh,GLA inh pH 4.5,miR-21 FLuc,Rango-impB inh
Cc1ccc2nc(C)c3c(c2c1)OC(C(C)(Cl)Br)C3 (centres undefined),-6%,2,6%,-3.5%
CCC(NC(C)C)C(O)c1ccc(O)c(O)c1 (centres undefined),-8%,-2&-3,-28%,2.5%
O=C(COC(=O)c1ccco1)Nc1nc2ccccc2s1,-8%,5,-16%,0.1%
CC(C(=O)N1CCCc2c1c(=O)oc1ccc(O)cc21)N1CCc2ccccc2C1 (centres undefined),-4%,-12,12%,-1.4%
CSc1ncc(-c2ccccc2)cn1,6%,0,-26%,-1.2%
O=C(N/N=C/c1ccsc1)c1c[nH]c2ccccc12,-9%,x,-47%,5.9%
O=C1CCOc2cc(OCc3ccccc3)ccc21,-3%,-3,-47%,-0.9%
Cn1cccc1-c1cc(C(=O)N/N=C/c2ccc(Cl)cc2)[nH]n1,-6%,x,18%,2.6%
Cc1cccnc1NC(=O)c1ccc(Cl)c(S(=O)(=O)N2CCCCCC2)c1,-10%,x,7%,1.6%
O=C(COc1nsnc1N1CCOCC1)Nc1ccccc1Cl,3%,x,-21%,-0.1%
Cc1cc(OCCNCCO)cc(C)c1Cl,11%,4,-3%,0.2%
CCOc1ccc(-n2nc3c(SCCN4CCCC4)nnc(C)c3c2C)cc1,-3%,-4,-6%,u
CCC(C)c1ccc(NC(=O)c2cccnc2)cc1 (centres undefined),14%,2,-50%,-2.2%
O=C(COC(=O)CCc1ccc(S(=O)(=O)N2CCOCC2)cc1)Nc1ncc(C(F)(F)F)cc1Cl,-4%,-2,-3%,-1.2%
CCC(C)Sc1ccc(-c2nc3cnccn3c2NC2CCCCC2)cc1 (centres undefined),u,x,x,u
Cc1ccc(NC(=O)N2C(=O)C3(OCCO3)c3ccccc32)cc1,22%,7,-50%,-0.5%
O=C(O)COc1ccc(=O)n(-c2ccccc2)n1,0%,-2,0%,-1.3%
CN(C)c1ccc(C=NCC2COc3ccccc3O2)cc1 (centres undefined),11%,-7,-5%,-0.6%
COc1ccc(CNc2cccc3[nH]c(C(F)(F)F)nc23)cc1OC,u,x,1%,-0.8%
NC(=O)c1cc([N+](=O)[O-])ccc1NCc1ccc(F)cc1,17%,x,x,1.0%
O=S(=O)(c1ccc(Br)cc1)c1nc(-c2ccccc2)oc1N1CCOCC1,2%,x,0%,-0.3%
COc1ccc(NC(=O)C(CC(C)C)NC(=O)C2CCCCC2)c(OC)c1 (centres undefined),3%,-8,2%&-4%,-3.5%
CCOC(=O)N1CCN(C(=O)C2CCCN(S(=O)(=O)c3ccc(C)cc3)C2)CC1 (centres undefined),-16%,-6,3%,1.0%
CC(C)(C)C1CCC(C(=O)OCC(=O)Nc2ccc3[nH]c(=O)[nH]c3c2)CC1 (centres undefined),-13%,5,-4%,-2.2%
COc1ccccc1NC(=O)Nc1ccc(Cl)c(S(=O)(=O)Nc2ccccc2OC)c1,-1%,-6,21%,1.3%
Cc1cccc2sc(N(CCCN3CCOCC3)C(=O)CS(=O)(=O)c3ccc(F)cc3)nc12,-4%,x,x,-2.2%
CC1=NN(c2ccccc2)C(=O)C1(C)[N+](=O)[O-] (centres undefined),2%,4,-4%,-3.5%
COc1ccc(S(=O)(=O)N2CCN(C(=O)COc3ccc(C)c(C)c3)CC2)cc1OC,4%,x,5%,1.7%
O=C(NCCSc1ncc(-c2ccccc2)[nH]1)c1ccco1,7%,x,x,1.7%
CCCCCCCCCC(=O)N[C@@H]1c2cc(OC)c(OC)cc2C[C@H]1O,-13%,x,x,1.2%
Cn1nc(CC(=O)NCc2ccc(C(F)(F)F)cc2)c2ccccc2c1=O,3%,0,10%,-3.9%
COCC(=O)Nc1nnc(-c2ccc(C(C)(C)C)cc2)s1,-5%,7,-52%,-0.2%
CCC(=O)N(C(=O)CC)N1CCN(c2ccncc2S(=O)(=O)N2CCCCC2)CC1,-9%,x,1%,-4.2%
Cc1ccccc1NC(=O)COc1ccc2oc(=O)cc(C)c2c1,3%,4,-5%,2.2%
O=C(/C=C/c1ccccc1)Nc1nnc(SCC(=O)c2ccc3ccccc3c2)s1,-14%,5,-9%,1.1%
N=c1c(S(=O)(=O)c2ccc(Br)cc2)cc2c(=O)n3ccccc3nc2n1CCN1CCOCC1,u,x,x,u
COc1ccc([N+](=O)[O-])cc1N1C(=O)c2cccnc2C1=O,-1%,x,-2%,-2.9%
Cc1ccc(C(=O)Nc2ccccc2C(=O)NC(Cc2ccccc2)C(=O)O)cc1 (centres undefined),6%,-5,-30%,3.2%
CCN1CCN(C(CNS(=O)(=O)c2ccccc2)c2ccccc2)CC1 (centres undefined),20%,x,-4%,0.5%
O=C(O)CCCC(=O)NCCc1cccc(Cl)c1,30%,1,-7%,-3.0%
S=C1SCCN1Cc1ccccc1,2%,x,x,-2.0%
O=C(NCc1ccco1)C(c1cccs1)N(C(=O)C1COc2ccccc2O1)c1cccc(O)c1 (centres undefined),-6%,-6,13%,0.5%
CN(Cc1c(C(=O)N/N=C/c2cccs2)nnn1-c1nonc1N)c1ccccc1,1%,x,-2%,-0.4%
CCOc1ccc(/C=C/C2=NNC(=O)CC2)cc1,-1%,-21,-69%,-1.9%
COc1ccc(C(=O)COC(=O)CNC(=O)c2cccc(OC(F)F)c2)cc1,-12%,-17,-2%,3.2%
CCC(CC)C(=O)c1c[nH]c(C(=O)N2CCN(c3ccc(OC)cc3)CC2)c1,15%,3,-13%,4.0%
Cc1ccc(Sc2nc(-c3ccccc3)ccc2C#N)cc1,20%,4,-4%,-0.5%
CCOc1ccccc1C(=O)NCC(=O)OCCOc1cccc(Cl)c1,u,x,0%,-2.0%
CC(C)(C)c1nnc(NC(=O)c2ccc3c(c2)OCO3)s1,0%,x,-69%,4.2%
COc1cccc(C2SCC(=O)N2c2cccc(C)c2)c1OC (centres undefined),0%,-1,-8%,3.8%
C[C@H](NC(=O)OC(C)(C)C)c1nnc(SCC(N)=O)o1,8%,-4,0%,0.5%
CCC(C)(C)n1nnnc1C(C(C)C)N1CCSCC1 (centres undefined),-26%,2,-1%,-0.4%
Cc1ccc(NS(=O)(=O)c2ccccc2[N+](=O)[O-])cc1C,-6%,-20,-26%,-1.3%
Cc1ccc(NC(=O)CN2CCC(C(=O)c3ccc4c(c3)OCCO4)CC2)cc1,-7%,-21,-11%,0.0%
O=C(Nc1ccccc1C(=O)Nc1ccncc1)c1ccccc1,-7%,x,2%,7.7%
Cc1cccc(C)c1Nc1c(-c2ccccn2)nc2ccccn12,-19%,-3,25%,0.5%
COc1cc(CCC(=O)NNC(=O)c2ccc(Cl)cc2)cc(OC)c1OC,-7%,x,-1%,0.0%
CCCCC1(C)NC(=S)N2N1C(=S)NC2(C)CCCC (centres undefined),11%,0,-2%,0.2%
CCOc1ccc(-c2cc(C(=O)OC)nc3c2c(=O)n(C)c(=O)n3C)cc1,1%,6,-4%,0.3%
CCOc1ccccc1OCC(=O)Oc1ccc(C)c(C)c1,0%,x,0%,-1.7%
# The list continues:
SMILES,Rango dissoc inh,GLA inh pH 4.5,miR-21 FLuc,Rango-impB inh
CC(C)Cn1cnc2c(SCc3ccc(Cl)cc3)nc(N)nc21,-15%,x,x,0.5%
CCC(=O)N1CCc2cc(S(=O)(=O)Nc3ccccc3C)ccc21,-11%,x,-16%,1.4%
CC1CCN(CCCn2c(=S)[nH]c3ccc(N4CCOCC4)cc3c2=O)CC1,-7%,-2,-1%,-1.2%
Cc1ccc(N2CCN(c3cc(C)nc4c5c(C)cc(C)nc5nn34)CC2)cc1,x,7,-3%,x
CCCCOC(=O)Nc1ccc(S(=O)(=O)Nc2ccc([N+](=O)[O-])cc2)cc1,-21%,1,-22%,-0.4%
COc1ccc(NC(=O)CSc2ccc3c4c(cccc24)C(=O)c2ccccc2-3)cc1,u,6,-4%,u
CCc1ccc(/C=C/c2c([N+](=O)[O-])c(=O)n(C)c(=O)n2C)cc1,5%,x,u,1.5%
O=C(CNS(=O)(=O)c1ccccc1Br)OCC(=O)N1CCc2ccccc21,1%,-3,-2%,1.6%
C(=N\Nc1nc(-c2ccccn2)nc2ccccc12)/c1ccccc1,x,-3,19%,x
COc1ccc(OC)c(NC(=O)CN(Cc2ccccc2)S(C)(=O)=O)c1,9%,7,-1%,-0.2%
Cc1ccc(-c2noc(CCCC(=O)NC3CCCCC3)n2)cc1,7%,x,10%,8.4%
CN(C)CCCN(C(=O)c1ccc(C(=O)c2ccccc2)cc1)c1nc2cc3c(cc2s1)OCO3,2%,x,8%,0.3%
Cc1ccc(-n2c(NN)nc3ccccc3c2=O)c(C)c1,29%,-6,-2%,-0.3%
COC(=O)[C@@H](Cc1c[nH]c2ccccc12)NC(=O)C1CCCN(S(=O)(=O)c2ccc(C)cc2)C1 (some centres undefined),2%,x,-2%,-1.8%
Cc1cccc(C(=O)NCC(=O)N2CCCC2)c1,4%,x,-14%,-0.5%
CCOC(=O)c1ccc(N2C(=O)c3n[nH]c(C)c3C2c2ccccn2)cc1 (centres undefined),0%,-5,-5%,4.9%
C[C@H](NC(=O)CCCn1nnc2ccccc2c1=O)C(=O)O,23%,2,-24%,-1.5%
CC1=C(C(=O)OC(C)C)C(C2CC=CCC2)NC(=O)N1 (centres undefined),-4%,-5,-5%,-0.2%
Cc1ccc(C(C)C)c(OCC(=O)NCC(c2cccs2)N2CCOCC2)c1 (centres undefined),-23%,x,x,0.3%
O=C(Nc1ccccc1N1CCCC1)c1ccccc1Cl,u,x,-7%,0.0%
Cn1cnnc1SCc1ccc(C#N)cc1Cl,29%,-6,-7%,-4.3%
CCN(C(=O)COC(=O)c1sccc1C)c1c(N)n(Cc2ccccc2)c(=O)[nH]c1=O,33%,x,x,-6.6%
CC1CCN(C(=O)C2c3ccccc3C(=O)N3CCc4ccccc4C23)CC1 (centres undefined),-14%,8,1%,-3.2%
Cc1cc(NC(=O)c2c(C)noc2C)no1,8%,1,0%,-1.5%
CCOc1cc(/C=C2\SC(=S)N(NS(=O)(=O)c3ccccc3)C2=O)ccc1O,5%,x,-4%,-0.4%
O=C(c1cccs1)N1CCN(CCCc2ccccc2)CC1,-11%,-12,-20%,1.0%
N#C/C(=C\c1cc(O)c(O)c(O)c1)C(N)=O,-10%,-11,-1%,-0.6%
O=C(NCCC1=CCCCC1)c1ccc2c(c1)N(Cc1ccccc1)C(=O)CS2,-25%,-3,18%,-1.3%
Cn1cccc1C(=O)OCC(=O)Nc1cccc(S(=O)(=O)N2CCOCC2)c1,-3%,-5,-1%,0.3%
CCCCCn1c(N)c(-c2nc3ccccc3s2)c2c([N+](=O)[O-])nn(CC)c(=O)c21,22%,4,0%,4.9%
CC(C)N(CC#CCC(O)(c1ccccc1)c1ccccc1)C(C)C,-7%,-4,-2%,-4.2%

# Source: PubChem BioAssay
